Screening data deposited in PubChem by several laboratories.
BJeLR viability = MLPCN primary cell-based screen for lethality selective to Ras in HRASV12 cells; actives 0.17% (n = 300,000); BJeLR (HRASV12) viability, CellTiter-Glo ATP luminescence, 48 h; reference of the scale not given here; inhibition, % (concentration not given with the values); AID 1554, 2009;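 active means replicate mean above 50%; inconclusive means above 50% but judged a plate artefact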;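 further: 50 nL library stock added to about 25 µL; numbers are from one replicate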
PrP UTR inh = inhibition of PrP 5' UTR reporter expression | cell-based PrP 5' UTR mRNA reporter, plate reader | inhibition, % (no concentration beside the values) | actives 0.35% (n = 340,000) | AID 488862, 2010;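 active means every replicate at 50% or more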;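 further: 0 = median of the neutral control wells; tested in H4 reporter cells; numbers are from one replicate; inactives centre near -14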
Mtb hypoxia rep = PubChem AID 1159583. actives 0.1% (n = 300,000). fluorescence inhibition, % (test concentration not listed). M. tuberculosis hypoxia-regulated fluorescent reporter, fluorescence;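 active means 35 to 45% if threefold the growth effect, above 45% if 1.5-fold the growth effect; inactive means the rest, general growth blockers included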;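 further: wells of about 50 µL received 100 nL stock; 0% = vehicle wells and 100% = reference inhibitor wells; whole bacteria with a GFP reporter of the hypoxia response; strong numbers were not always called active; many hits fall short of the cut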
RN4220 kill = growth inhibition of S. aureus RN4220, primary screen, OD600. 16 h. inhibition, % (concentration not given with the values). actives 0.33% (n = 330,000). AID 1259311, 2017;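 active means z-score of -3 or lower and OD600 up to 0.18 on both plates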;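 further: plate controls were untreated cells for no effect and reference antibiotic for full effect; stock transfer was 100 nL into about 80 µL; one replicate is shown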
Sa ugtP lethal = growth inhibition of ugtP-null S. aureus, primary screen, RN4220 ugtP deletion, OD600 | 16 h; some inactives read as strong as hits | growth inhibition, % (no concentration beside the values) | actives 0.54% (n = 330,000) | AID 1259309, 2017;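 active means z-score under -3 and OD600 up to 0.15 on both plates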;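 further: plate controls were untreated wells for no effect and antibiotic for full effect; wells of about 80 µL received 100 nL stock; the first replicate is given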
Bead autofluor = compound fluorescence in toxin protease inhibitor counterscreen; AID 624483; actives 3.1% (n = 360,000); fluorescence intensity (no concentration beside the values); compound autofluorescence counterscreen, microsphere flow cytometry; stronger effect = higher value;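 active means at least 3 SD above the mean of all compounds, about 16000 in these data; inconclusive means too few beads counted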;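 further: 100 nL of 1 mM stock went into each well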
Mtb hypoxia rep growth = also measured in Mtb hypoxia rep; calls as there; growth inhibition, %; measured here: M. tuberculosis growth (absorbance);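 0% = vehicle and 100% = reference antibiotic; read after six days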
* marks the source's active call; other numbers are inactive results; ? = inconclusive; . = not tested or not shown; & = joins results of further samples.

no.	molecule	BJeLR viability	PrP UTR inh	Mtb hypoxia rep	Mtb hypoxia rep growth
1	Cc1nc(NC(=O)c2ccc(Cl)cc2)nc2cc3c(cc12)OCO3	-13	0	8	-6
2	CC(C)(C)OC(=O)NC(Cc1ccccc1)C(=O)N1CCCC1C(=O)O (stereo unspecified)	-3	-17	-7	1
3	CN(C(=O)CSc1ncc(C(F)(F)F)cc1Cl)c1c(N)n(Cc2ccccc2)c(=O)[nH]c1=O	9	-12	5	9
4	O=C(CSCc1ccc(Cl)cc1)NCc1ccccn1	-3	-18	-1	2
5	CN(Cc1cccc(F)c1)C(=O)c1ccc(S(=O)(=O)C(F)F)cc1	2	-25	-1	-7
6	CN(C)CCCN(C(=O)c1ccc(C(=O)c2ccccc2)cc1)c1nc2ccc(F)cc2s1	9	-6	16	6
7	CCOC(=O)Cc1csc(NC(=O)c2cc(C)on2)n1	-5	-22	-1	5
8	O=C1C2C3C=CC(O3)C2C(=O)N1N=C1CCCCC1 (stereo unspecified)	.	5	16	6
9	O=C(c1c[nH]c2ccccc12)N1CCN(Cc2ccccc2)CC1	-4	-8	.	.
10	CCN(C(=O)CSc1nnc(-c2cccc(F)c2)n1N)c1c(N)n(Cc2ccccc2)c(=O)[nH]c1=O	.	-7	0	9
11	CCc1ccc[n+](-c2[nH]c(=O)sc2/C=N/N=C(\[O-])CCn2c3ccccc3c3ccccc32)c1	-2	-26	.	.
12	N#CCNC(=O)C1CC(=O)N(CCc2ccc(F)cc2)C1 (stereo unspecified)	-1	-21	12	1

no.	RN4220 kill	Sa ugtP lethal	Bead autofluor
1	7.4	12	1942
2	2.9	6	3938
3	0.0	5	3552
4	0.8	4	2075
5	-6.2	-4	9177
6	-2.4	-8	6115
7	0.6	0	6494
8	4.5	11	2921
9	.	.	4730
10	1.8	4	5317
11	.	.	4085
12	3.0	6	4133

The list goes on:
no.	molecule	BJeLR viability	PrP UTR inh	Mtb hypoxia rep	Mtb hypoxia rep growth
13	Cc1ccc(C(C(=O)NCc2ccco2)N(C(=O)Cn2nnc3ccccc32)c2ccccc2)o1 (stereo unspecified)	7	-7	.	.
14	CCOC(=O)CSc1nc2ccsc2c(=O)n1C1CCN(C(=O)OCC)CC1	-2	-5	0	-3
15	CCOC(=O)N1CCN(S(=O)(=O)c2ccc(C(=O)NNc3nc4c(C)cccc4s3)cc2)CC1	0	-1	3	1
16	COC(=O)c1c(-c2ccccc2)csc1N1C(=O)Nc2ccccc2N1O	-1	-14	-9	-3
17	COc1cc(OC)cc(C(=O)NC(=S)N2CCCCCC2)c1	-10	-20	5	14
18	COCCCn1c(=O)c2sccc2n(Cc2ccc(C)cc2)c1=O	-4	12	0	4
19	Cc1cc(OCC(=O)NC2CCN(Cc3ccccc3)CC2)c2c(C)c(C)c(=O)oc2c1	-8	-14	5	-8
20	COC(=O)C1=C(C)NC(=O)/C1=C\c1cc(C)n(-c2c(C)cccc2C)c1C	-2	5	12	4
21	O=C(/C=C/c1cccs1)N1CCN(c2ccccc2F)CC1	3	-20	8	19
22	CCC1CCCCN1CCCNC(=O)C1CCCN(c2ncnc3c2nc2n3CCCCC2)C1 (stereo unspecified)	-2	-12	5	17
23	CCCCCN(C(=O)NC(=O)Nc1ccc(C)cc1)S(=O)(=O)c1ccccc1	-5	-36	2	4
24	COC(=O)[C@H](CC(C)C)NC(=O)NCCCc1ccccc1	-1	-15	25	22

no.	RN4220 kill	Sa ugtP lethal	Bead autofluor
13	33	-7	6027
14	1.6	4	8035
15	0.9	4	5534
16	5.9	-1	1998
17	2.3	6	4265
18	4.8	10	4396
19	6.0	19	4807
20	6.4	-16	7786
21	-3.2	-3	2049
22	1.5	3	5207
23	-2.5	-3	2418
24	-1.8	5	2096

(cont.)
no.	molecule	BJeLR viability	PrP UTR inh	Mtb hypoxia rep	Mtb hypoxia rep growth
25	O[C@H]1[C@H](O)[C@@H](O)CN2CC[C@H](O)[C@H]12	1	-26	.	.
26	CC(NC(=O)c1ccc(NC2=NC3CS(=O)(=O)CC3S2)cc1)c1ccccc1 (stereo unspecified)	0	-15	9	9
27	COc1cc2ccccc2cc1C(=O)Nc1ccccc1N1CCN(S(C)(=O)=O)CC1	-11	-3	.	.
28	O=C(NNC(=O)C1CCCO1)c1ccc(F)cc1 (stereo unspecified)	-1	-12	-7	-3
29	O=c1oc(-c2ccco2)nc2sc3c(c12)CCCCC3	4	-23	9	-2
30	O=C(C1CCN(S(=O)(=O)c2ccccc2)CC1)N1CCc2ccccc21	-1	-22	5	4
31	CN1CCN(NC(=O)Nc2cccc(Cl)c2Cl)CC1	2	-28	-5	3
32	O=C(NC(CO)Cc1ccc([N+](=O)[O-])cc1)C(Cl)Cl (stereo unspecified)	-3	-6	.	.
33	Cc1nnc(SCC2=C(C(=O)O)N3C(=O)C(NC(=O)c4cccc(F)c4F)C3SC2)s1 (stereo unspecified)	-1	-9	13	4
34	COc1cc2[nH]c(=O)n(-c3ccccc3)c(=O)c2cc1OC	12	-5	.	.
35	COc1ccc(N2CC(C(=O)N[C@@H](C)C(=O)NCc3ccccc3OC)CC2=O)cc1 (stereo partly specified)	9	7	3	2
36	O=C(COc1cccc(NC(=O)c2cccc([N+](=O)[O-])c2)c1)c1ccc(F)cc1	0	-16	16	8

no.	RN4220 kill	Sa ugtP lethal	Bead autofluor
25	.	.	6039
26	-13	0	5950
27	-8.1	-10	2705
28	-0.3	1	2531
29	7.6	4	5091
30	1.3	-2	6384
31	-1.6	3	3508
32	94*	99*	2151
33	100*	101*	4457
34	3.5	3	4648
35	6.1	9	5546
36	6.4	-20	2932

Later entries:
no.	molecule	BJeLR viability	PrP UTR inh	Mtb hypoxia rep	Mtb hypoxia rep growth
37	COc1cccc(NC(=O)CN(C)C(=O)c2cccc(S(=O)(=O)Nc3ccc(C)cc3)c2)c1	.	-4	2	0
38	CC1CCCN(C(C(=O)Nc2ccc3c(c2)OCO3)c2ccccc2)C1 (stereo unspecified)	10	52	-1	-5
39	CSCCC1NC(=O)N(CC(=O)Nc2ccc3c(c2)OCCO3)C1=O (stereo unspecified)	.	-4	-2	-3
40	O=C(CN(CC1CCCO1)C(=O)CCC(=O)Nc1ccccn1)NCC1CCCO1 (stereo unspecified)	-6	-1	.	.
41	C=C1C(=O)O[C@H]2C[C@]3(C)C([C@@H](OC(=O)/C(C)=C/C)[C@H]12)[C@](C)(O)CC[C@H]3O (stereo partly specified)	1	-20	2	13
42	O=C(Nc1ccc2c(c1)OCO2)OC1CC2CCC(=O)N3CCC(C1)C23 (stereo unspecified)	.	.	0	10
43	COc1cc(C=O)ccc1OCc1ccc(Cl)nc1	-5	-30	9	12
44	CC(C)CCC1(CN2CCCC2=O)C(=O)NC(=O)NC1=O	-1	-20	6	-1
45	O=C(NC1CCCCCC1)C1CCC(CNS(=O)(=O)c2ccc(Br)s2)CC1 (stereo unspecified)	-1	0	3	8
46	O=C(Nc1ccccc1)OCCOc1ccccc1	24	-48	-9	-9
47	CCCCCn1c(=N)n(CC(O)COc2ccccc2OC)c2ccccc21 (stereo unspecified)	11&-4	-11&-12	0&-3	4&1
48	O=C1CN(C(=O)NCCC(=O)NC2CCCCC2)c2ccccc2N1	0	-18	-8	-1

no.	RN4220 kill	Sa ugtP lethal	Bead autofluor
37	-0.3	2	4253
38	4.5	8	4384
39	0.3	0	3078
40	1.9	-1	4738
41	3.0	2	2896
42	2.7	1	.
43	8.0	6	3187
44	-8.8	-3	3390
45	2.1	-3	2136
46	1.2	1	7468
47	-0.3&0.8	4&-8	6016&4368
48	0.1	1	5726

Next section.
no.	molecule	BJeLR viability	PrP UTR inh	Mtb hypoxia rep	Mtb hypoxia rep growth
49	Nc1ccccc1NC(=O)NC(=O)c1ccccc1	2	-63	-5	8
50	COc1ccc(CCNC(=O)COc2ncnc3ccccc23)cc1OC	.	-15	16	8
51	CCN(CC)S(=O)(=O)c1ccc(N2Cc3ccccc3C2=N)cc1	16	-14	10	16
52	Cc1ccc(Cn2c(CN3CCOCC3)nc3c2c(=O)n(C)c(=O)n3C)cc1	0	12	2	4
53	O=C(O)Cn1c(-c2cscn2)nc2ccccc21	-9	-25	19	18
54	CC(=O)c1ccc(S(=O)(=O)NC2CC(=O)N(c3cccc(F)c3)C2)cc1 (stereo unspecified)	4	0	4	12
55	COc1cc(C)c(S(=O)(=O)N2CCOCC2)cc1C(C)C	-11	-15	9	13
56	O=C(O)CSc1ncnc2c1oc1ccccc12	-3	9	.	.
57	CCOc1cc(C)c(S(=O)(=O)N2CCCCC2)cc1C	-10	10	0	10
58	CC(CCc1ccco1)=NNC(=O)CNc1cccc2ccccc12	.	.	7	10
59	O=C(CN1C(=O)S/C(=C\c2ccccn2)C1=O)Nc1ccccc1	.	-20	-1	3
60	Cc1ccc(OC(C)C(=O)N=Nc2c(O)[nH]c3ccc([N+](=O)[O-])cc23)cc1 (stereo unspecified)	-3	-22	6	5

no.	RN4220 kill	Sa ugtP lethal	Bead autofluor
49	-0.2	2	3085
50	2.4	7	4456
51	5.9	11	4184
52	1.1	1	4474
53	3.5	7	4413
54	2.9	3	?
55	7.8	5	4345
56	.	.	2660
57	4.0	-4	4179
58	-0.3	5	.
59	2.6	2	6190
60	-6.4	-12	2485

Part of the list above in order of number of heavy atoms, low to high.
no.	molecule	BJeLR viability	PrP UTR inh	Mtb hypoxia rep	Mtb hypoxia rep growth
43	COc1cc(C=O)ccc1OCc1ccc(Cl)nc1	-5	-30	9	12
12	N#CCNC(=O)C1CC(=O)N(CCc2ccc(F)cc2)C1 (stereo unspecified)	-1	-21	12	1
34	COc1cc2[nH]c(=O)n(-c3ccccc3)c(=O)c2cc1OC	12	-5	.	.
51	CCN(CC)S(=O)(=O)c1ccc(N2Cc3ccccc3C2=N)cc1	16	-14	10	16
39	CSCCC1NC(=O)N(CC(=O)Nc2ccc3c(c2)OCCO3)C1=O (stereo unspecified)	.	-4	-2	-3
30	O=C(C1CCN(S(=O)(=O)c2ccccc2)CC1)N1CCc2ccccc21	-1	-22	5	4
45	O=C(NC1CCCCCC1)C1CCC(CNS(=O)(=O)c2ccc(Br)s2)CC1 (stereo unspecified)	-1	0	3	8
33	Cc1nnc(SCC2=C(C(=O)O)N3C(=O)C(NC(=O)c4cccc(F)c4F)C3SC2)s1 (stereo unspecified)	-1	-9	13	4
3	CN(C(=O)CSc1ncc(C(F)(F)F)cc1Cl)c1c(N)n(Cc2ccccc2)c(=O)[nH]c1=O	9	-12	5	9
22	CCC1CCCCN1CCCNC(=O)C1CCCN(c2ncnc3c2nc2n3CCCCC2)C1 (stereo unspecified)	-2	-12	5	17
13	Cc1ccc(C(C(=O)NCc2ccco2)N(C(=O)Cn2nnc3ccccc32)c2ccccc2)o1 (stereo unspecified)	7	-7	.	.

no.	RN4220 kill	Sa ugtP lethal	Bead autofluor
43	8.0	6	3187
12	3.0	6	4133
34	3.5	3	4648
51	5.9	11	4184
39	0.3	0	3078
30	1.3	-2	6384
45	2.1	-3	2136
33	100*	101*	4457
3	0.0	5	3552
22	1.5	3	5207
13	33	-7	6027

Additional entries:
no.	molecule	BJeLR viability	PrP UTR inh	Mtb hypoxia rep	Mtb hypoxia rep growth
61	Cc1[nH]c(=O)[nH]c(=O)c1N(C)C	-3	-25	-5	2
62	CC(C)NS(=O)(=O)c1ccc(OCC(=O)NC2CCCCCC2)cc1	6	-5	.	.
63	CC(=O)Nc1cccc(C(C)=NNc2ccc(S(=O)(=O)Nc3ccccc3C(=O)O)cc2[N+](=O)[O-])c1	.	.	12	4
64	O=C(CCSc1ccccc1)Nc1ccc(S(=O)(=O)Nc2ncccn2)cc1	8	-19	10	13
65	O=C(O)CC(c1ccc(F)cc1F)N1Cc2ccccc2C1=O (stereo unspecified)	-11	-12	-5	2

no.	RN4220 kill	Sa ugtP lethal	Bead autofluor
61	-1.1	-5	2080
62	.	.	5504
63	-10	0	.
64	8.6	11	2193
65	1.2	6	3822

Limited to Bead autofluor and RN4220 kill, for some of the entries so far:
item	compound	Bead autofluor	RN4220 kill
63	CC(=O)Nc1cccc(C(C)=NNc2ccc(S(=O)(=O)Nc3ccccc3C(=O)O)cc2[N+](=O)[O-])c1	.	-10
64	O=C(CCSc1ccccc1)Nc1ccc(S(=O)(=O)Nc2ncccn2)cc1	2193	8.6
